Bioassay records (PubChem BioAssay)
FGF22 binding: binders of human FGF22 protein, primary screen, FGF22 synaptogenesis inhibitor project, biophysical, thermal shift, single point; Fibroblast growth factor 22 (Homo sapiens), Q9HCT0; recombinant FGF22 thermal shift, SYPRO orange fluorescence; percent of sucrose octasulfate shift, DMSO zero; calls only at 9.99 µM; 340,000 tested, 1.5% active;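 active means melting point raised past a set limit in the mean and every replicate; three in four hits are not shown here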
Target sequence (Q9HCT0 whole entry, looked up): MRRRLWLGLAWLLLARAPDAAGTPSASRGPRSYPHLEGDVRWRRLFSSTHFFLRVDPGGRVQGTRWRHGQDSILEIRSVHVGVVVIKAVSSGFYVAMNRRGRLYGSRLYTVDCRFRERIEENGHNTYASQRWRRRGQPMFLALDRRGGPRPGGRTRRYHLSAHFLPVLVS
Calls only; i = inactive. An excerpt; rates above refer to the full screens.

SMILES	FGF22 binding
COc1ccc(-c2cnc3c(c2)C(=O)N([C@@H](C)CO)C[C@H](C)[C@@H](CN(C)Cc2ccccc2)O3)cc1	i
COc1ccc(NC(=O)Nc2cccc3c2O[C@@H](CN(C)C(=O)Nc2c(C)noc2C)[C@H](C)CN([C@@H](C)CO)C3=O)cc1	i
C/C=C/c1ccc2c(c1)O[C@@H](CN(C)Cc1cccc(F)c1)[C@H](C)CN([C@H](C)CO)S2(=O)=O	i
C/C=C/c1cnc2c(c1)C(=O)N([C@@H](C)CO)C[C@@H](C)[C@H](CN(C)C(=O)Cc1cccnc1)O2	i
C[C@@H]1CN([C@H](C)CO)C(=O)c2cccc(NC(=O)Nc3ccccc3)c2O[C@@H]1CN(C)C	i
CN(C)C(=O)c1ccc(-c2ccc3c(c2)[C@H]2[C@H](CCN2C(=O)c2cnccn2)[C@@H](CO)N3)cc1	i
CC(=O)N(C)C[C@@H]1Oc2cc(C#C[C@H](C)O)ccc2S(=O)(=O)N([C@H](C)CO)C[C@H]1C	i
C[C@@H]1CN([C@@H](C)CO)S(=O)(=O)c2ccc(C3=CCCCC3)cc2O[C@H]1CN(C)S(=O)(=O)c1cn(C)cn1	i
CCS(=O)(=O)N1CCC2(CC1)CN(C(=O)Nc1c(C)noc1C)[C@H](CO)c1[nH]c3cc(OC)ccc3c12	i
CN1C[C@@H](O)COC[C@@H]2O[C@@H](CC(=O)NC3CCCC3)CC[C@H]21	i
C[C@H]1CN([C@@H](C)CO)C(=O)c2c(c3ccccc3n2C)-c2ccccc2CO[C@H]1CN(C)C(=O)c1ccncc1	i
O=C(N[C@H]1CC[C@H](CCNS(=O)(=O)c2ccccc2)O[C@H]1CO)c1cccc(F)c1	i
C[C@H](CO)N1C[C@H](C)[C@@H](CN(C)C(=O)c2ccccc2F)Oc2ncc(-c3cncnc3)cc2C1=O	i
C[C@H]1CN([C@@H](C)CO)C(=O)Cc2cc(NC(=O)Nc3ccccc3)ccc2O[C@H]1CN(C)Cc1ccc(C(=O)O)cc1	i
CCCNC(=O)N(C)C[C@@H]1Oc2cc(-c3ccncc3)ccc2S(=O)(=O)N([C@H](C)CO)C[C@@H]1C	i
C[C@@H]1CN([C@@H](C)CO)C(=O)c2cc(NC(=O)c3ccccc3)ccc2O[C@@H](C)CCCCO[C@H]1CN(C)C(=O)c1ccncc1	i
C[C@H]1CN([C@@H](C)CO)C(=O)c2c(c3ccccc3n2C)-c2ccccc2CO[C@@H]1CN(C)S(=O)(=O)c1ccccc1C#N	i
CCCC(=O)Nc1ccc2c(c1)OC[C@@H](C)N(S(=O)(=O)c1cn(C)cn1)C[C@@H](C)[C@H](OC)CN(C)C2=O	i
Cc1ccc(S(=O)(=O)N(C)C[C@H]2Oc3ccc(NC(=O)c4ccncc4)cc3CC(=O)N([C@H](C)CO)C[C@@H]2C)cc1	i
O=S(=O)(c1cccs1)N1CCCCN2[C@H](CO)[C@H](c3ccc(C4=CCCCC4)cc3)[C@@H]2C1	i

5 consecutive compounds out of the list so far, for reference:
SMILES	FGF22 binding
COc1ccc(-c2cnc3c(c2)C(=O)N([C@@H](C)CO)C[C@H](C)[C@@H](CN(C)Cc2ccccc2)O3)cc1	i
COc1ccc(NC(=O)Nc2cccc3c2O[C@@H](CN(C)C(=O)Nc2c(C)noc2C)[C@H](C)CN([C@@H](C)CO)C3=O)cc1	i
C/C=C/c1ccc2c(c1)O[C@@H](CN(C)Cc1cccc(F)c1)[C@H](C)CN([C@H](C)CO)S2(=O)=O	i
C/C=C/c1cnc2c(c1)C(=O)N([C@@H](C)CO)C[C@@H](C)[C@H](CN(C)C(=O)Cc1cccnc1)O2	i
C[C@@H]1CN([C@H](C)CO)C(=O)c2cccc(NC(=O)Nc3ccccc3)c2O[C@@H]1CN(C)C	i

Next structures
SMILES	FGF22 binding
C[C@H](O)C#Cc1cnc2c(c1)C(=O)N([C@H](C)CO)C[C@@H](C)[C@H](CN(C)CC1CCCCC1)O2	i
CC(C)(C)[S@@](=O)N1Cc2cc(C(=O)O)nc(-c3cccc(-c4cccc(F)c4)c3)c2[C@H]1CCO	i
C[C@@H]1CN([C@@H](C)CO)C(=O)Cc2cc(NC(=O)Cn3cnnn3)ccc2O[C@H]1CN(C)S(C)(=O)=O	i
COc1cccc(-c2cnc3c(c2)C(=O)N([C@@H](C)CO)C[C@@H](C)[C@@H](CN(C)C(=O)CN(C)C)O3)c1	i
CC(=O)N(C)C[C@@H]1Oc2cc(-c3ccccc3F)ccc2S(=O)(=O)N([C@@H](C)CO)C[C@H]1C	i
COc1ccc2c3c([nH]c2c1)[C@@H](CO)NCC31CN(Cc2ccccc2F)C1	i
C[C@@H]1CN([C@@H](C)CO)C(=O)c2cccc(NC(=O)Nc3cccc4ccccc34)c2O[C@@H]1CN(C)Cc1ccc2c(c1)OCO2	i
CO[C@H](CN(C)S(=O)(=O)c1cn(C)cn1)[C@H](C)CN(C(=O)Nc1ccc(F)cc1)[C@H](C)CO	i
COc1ccc(S(=O)(=O)Nc2ccc3c(c2)C(=O)N([C@@H](C)CO)C[C@@H](C)[C@H](CN(C)Cc2ccc(C(F)(F)F)cc2)OCCCC[C@@H](C)O3)cc1	i
C[C@H](CO)N1C[C@H](C)[C@H](CN(C)C(=O)Nc2ccccc2)OCCCC[C@H](C)Oc2ccc(NC(=O)Nc3ccc(F)cc3)cc2C1=O	i
CNC[C@H]1Oc2ncc(-c3cccc(C(=O)N(C)C)c3)cc2C(=O)N([C@@H](C)CO)C[C@H]1C	i
C[C@@H]1CN([C@H](C)CO)C(=O)Cc2cc(NC(=O)Nc3cccc4ccccc34)ccc2O[C@H]1CN(C)C	i
CN(C)C(=O)C[C@@H]1CC[C@@H]2[C@@H](COc3ccc(NS(=O)(=O)c4cccc(F)c4)cc3C(=O)N2C)O1	i
Cc1cc(O)cc(=O)n1-c1ccc(Cl)c(C(F)(F)F)c1	i
CN1CCCCN2[C@@H](CO)[C@H](c3ccc(C#Cc4ccccc4F)cc3)[C@@H]2C1	i
C[C@@H]1CCCCO[C@H](CN(C)S(=O)(=O)c2ccc(Cl)cc2)[C@H](C)CN([C@H](C)CO)C(=O)c2cc(NC(=O)c3ccncc3)ccc2O1	i
C[C@@H]1CN([C@H](C)CO)C(=O)c2cc(NC(=O)c3ccncc3)ccc2O[C@@H](C)CCCCO[C@@H]1CN(C)Cc1ccncc1	i
COC(=O)c1cc2c(c3c4cc(C)ccc4n(C(=O)c4ccccc4)c13)C(=O)N(Cc1ccccc1)C2	i
C[C@@H]1CN([C@@H](C)CO)S(=O)(=O)c2ccc(C#Cc3cccnc3)cc2O[C@@H]1CN(C)C(=O)CN(C)C	i
COC(=O)c1ccc2nc(-c3ccc(Cl)cc3)c(Cc3ccccc3)n2c1	i
CCCC(=O)N1CC2(CCN(C(=O)NC(C)C)CC2)c2c([nH]c3cc(OC)ccc23)[C@@H]1CO	i
COC(=O)C[C@H]1CC[C@@H]2[C@H](COc3ccc(NS(=O)(=O)c4ccc(F)cc4)cc3C(=O)N2C)O1	i
CCCN1[C@@H]2c3cccc(=O)n3C[C@@H]2[C@@H](CO)[C@@H]1C(=O)N1CCCCC1	i
Cc1ccc(S(=O)(=O)N(C)C[C@H]2Oc3ccc(NC(=O)NC4CCCCC4)cc3C(=O)N([C@H](C)CO)C[C@H]2C)cc1	i
C[C@@H]1CCCCO[C@H](CN(C)C(=O)Nc2ccc(C(F)(F)F)cc2)[C@@H](C)CN([C@H](C)CO)C(=O)c2cc(NC(=O)CCC(F)(F)F)ccc2O1	i
C[C@H](CO)N1C[C@H](C)[C@@H](CN(C)Cc2cccc(F)c2)Oc2ncc(-c3ccccc3F)cc2C1=O	i
C[C@H]1CN([C@@H](C)CO)S(=O)(=O)c2ccc(-c3cccnc3)cc2O[C@@H]1CN(C)CC1CCOCC1	i
C[C@H]1CN([C@@H](C)CO)C(=O)Cc2cc(N(C)C)ccc2O[C@H]1CN(C)Cc1ccncc1	i
C[C@H]1CN([C@@H](C)CO)C(=O)Cc2cc(NC(=O)Nc3cccc4ccccc34)ccc2O[C@H]1CN(C)Cc1ccncc1	i
C[C@H]1CCCCO[C@@H](CN(C)Cc2ccc(C(=O)O)cc2)[C@@H](C)CN([C@@H](C)CO)C(=O)c2cc(NS(=O)(=O)c3cn(C)cn3)ccc2O1	i
CC(=O)NC[C@H]1[C@@H](c2ccc(-c3cccc(F)c3)cc2)[C@@H](CO)N1C(C)=O	i
NCC[C@H]1CC[C@@H](NC(=O)C2CCCCC2)[C@@H](CO)O1	i
C[C@H](CO)N1C[C@H](C)[C@@H](CN(C)Cc2ccc(Oc3ccccc3)cc2)Oc2ccc(NC(=O)CCC(F)(F)F)cc2C1=O	i
Cc1noc(C)c1NC(=O)Nc1ccc2c(c1)CC(=O)N([C@H](C)CO)C[C@H](C)[C@H](CN(C)S(=O)(=O)c1ccc(F)cc1)O2	i
Cc1ccc(S(=O)(=O)Nc2ccc3c(c2)C(=O)N([C@H](C)CO)C[C@@H](C)[C@@H](CN(C)S(=O)(=O)c2ccc(F)cc2)OCCCC[C@@H](C)O3)cc1	i
COCC(=O)N(C)C[C@H]1Oc2ncc(-c3cccc(OC)c3)cc2C(=O)N([C@H](C)CO)C[C@H]1C	i
COc1ccc(NC(=O)N2C[C@H](O)COC[C@@H]3O[C@H](CC(=O)NC4Cc5ccccc5C4)CC[C@H]32)cc1	i
O=C(C[C@@H]1CC[C@H](NC(=O)C2CC2)[C@@H](CO)O1)NCCCN1CCOCC1	i
CC(C)C#Cc1cnc2c(c1)C(=O)N([C@@H](C)CO)C[C@@H](C)[C@H](CN(C)C(=O)Nc1ccccc1F)O2	i
C[C@H](CO)N1C[C@H](C)[C@@H](CN(C)C(=O)c2cnccn2)Oc2cc(C#CC3CC3)ccc2S1(=O)=O	i
O=C(C[C@@H]1CC[C@H]2[C@@H](COC[C@H](O)CN2S(=O)(=O)c2ccc(Cl)cc2)O1)NCc1ccc(Cl)c(Cl)c1	i
C[C@@H](NC(=O)C[C@@H]1C[C@H]2c3cc(NC(=O)CN(C)C)ccc3O[C@H]2[C@@H](CO)O1)c1ccccc1	i
CC(C)NC(=O)N(C)C[C@H]1OCCCC[C@H](C)Oc2ccc(NC(=O)C3CCCCC3)cc2C(=O)N([C@H](C)CO)C[C@H]1C	i
CCCNC(=O)Nc1ccc2c(c1)OC[C@H](C)N(Cc1ccncc1)C[C@@H](C)[C@H](OC)CN(C)C2=O	i
CN(C)c1ccc2c(c1)[C@@H]1C[C@@H](CC(=O)NCc3ccc(Oc4ccccc4)cc3)O[C@@H](CO)[C@@H]1O2	i
CC(C)(O)C#Cc1ccc([C@@H]2[C@H]3CN(C(=O)c4cccc(F)c4)CCCCN3[C@H]2CO)cc1	i
CO[C@@H]1CN(C)C(=O)c2cc(NS(=O)(=O)c3ccccc3)ccc2OC[C@@H](C)N(Cc2ccccn2)C[C@H]1C	i
Cc1ccccc1NC(=O)Nc1ccc2c(c1)C(=O)N(C)[C@@H]1CC[C@@H](CC(=O)NCC3CC3)O[C@H]1CO2	i
CO[C@H]1CN(C)C(=O)c2cc(NS(C)(=O)=O)ccc2OC[C@@H](C)N(CC2CC2)C[C@H]1C	i
C[C@H](CO)N1C[C@H](C)[C@H](CN(C)C(=O)C2CCOCC2)Oc2cc(-c3ccc(C(=O)N(C)C)cc3)ccc2S1(=O)=O	i

Reprinted at random: 5 records from the list
SMILES	FGF22 binding
C[C@@H]1CCCCO[C@H](CN(C)S(=O)(=O)c2ccc(Cl)cc2)[C@H](C)CN([C@H](C)CO)C(=O)c2cc(NC(=O)c3ccncc3)ccc2O1	i
Cc1ccc(S(=O)(=O)Nc2ccc3c(c2)C(=O)N([C@H](C)CO)C[C@@H](C)[C@@H](CN(C)S(=O)(=O)c2ccc(F)cc2)OCCCC[C@@H](C)O3)cc1	i
Cc1ccc(S(=O)(=O)N(C)C[C@H]2Oc3ccc(NC(=O)NC4CCCCC4)cc3C(=O)N([C@H](C)CO)C[C@H]2C)cc1	i
CO[C@@H]1CN(C)C(=O)c2cc(NS(=O)(=O)c3ccccc3)ccc2OC[C@@H](C)N(Cc2ccccn2)C[C@H]1C	i
CN(C)c1ccc2c(c1)[C@@H]1C[C@@H](CC(=O)NCc3ccc(Oc4ccccc4)cc3)O[C@@H](CO)[C@@H]1O2	i

Following part:
SMILES	FGF22 binding
Cc1cccc(S(=O)(=O)N(C)C[C@@H]2OCc3ccccc3-c3c(n(C)c4ccccc34)C(=O)N([C@@H](C)CO)C[C@@H]2C)c1	i
O=C(C[C@@H]1CC[C@H](NC(=O)c2ccccn2)[C@@H](CO)O1)NCc1cc(F)cc(F)c1	i
O=C(C[C@@H]1CC[C@@H]2[C@H](COC[C@@H](O)CN2Cc2ccccc2)O1)N1CCOCC1	i
C[C@H](CO)N1C[C@H](C)[C@H](CN(C)Cc2cccc(F)c2)Oc2ncc(C#CCc3ccccc3)cc2C1=O	i
O=C(C[C@H]1C=C[C@@H](NC(=O)Nc2ccccc2F)[C@H](CO)O1)NCc1ccc(F)cc1	i
Cc1ccc(S(=O)(=O)NCC[C@@H]2CC[C@H](NC(=O)Nc3ccccc3F)[C@@H](CO)O2)cc1	i
C[C@@H]1CN([C@@H](C)CO)C(=O)c2cc(C#CCc3ccccc3)cnc2O[C@H]1CN(C)CC1CCOCC1	i
CN(Cc1ccccc1)CC1CC(c2ccccc2)OC(c2ccc(NC(=O)CCCCCCC(=O)O)cc2)O1 (stereo unspecified)	i
COc1ccc(C(C#N)=Cc2cc(OC)c(OC)c(OC)c2)cc1	i
CCNC(=O)C[C@H]1CC[C@@H]2[C@@H](COc3ccc(NC(=O)c4ccccc4)cc3C(=O)N2C)O1	i

Rewritten with each value named: part of the list above.
> O=C(C[C@@H]1CC[C@H](NC(=O)c2ccccn2)[C@@H](CO)O1)NCc1cc(F)cc(F)c1
  FGF22 binding: i

> O=C(C[C@@H]1CC[C@@H]2[C@H](COC[C@@H](O)CN2Cc2ccccc2)O1)N1CCOCC1
  FGF22 binding: i

Continuation.
SMILES	FGF22 binding
CO[C@@H]1CN(C)C(=O)c2ccc(NS(=O)(=O)c3ccc(C)cc3)cc2OC[C@H](C)N(Cc2nccs2)C[C@@H]1C	i
C[C@H]1CN([C@@H](C)CO)C(=O)c2cc(NC(=O)Cn3cnnn3)ccc2O[C@H]1CN(C)S(=O)(=O)c1cccs1	i
C[C@H]1CN([C@@H](C)CO)S(=O)(=O)c2ccc(C3=CCCCC3)cc2O[C@H]1CN(C)C(=O)CC1CC1	i
O=C(C[C@H]1C[C@@H]2c3cc(NC(=O)CC4CC4)ccc3O[C@@H]2[C@H](CO)O1)NCc1ccccc1	i
